NPYLR7 agonist: mosquito NPYLR7 agonism. HEK293T NPYLR7/Galpha15, GCaMP6s calcium fluorescence. activation, % at 10 µM. 270,000 compounds, 0.15% hits. AID 1259423; in the data active = activation above about 40%;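 note: 0% = vehicle and 100% = reference agonist at the receptor; some compounds past the cut are filed as inactive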
NPYLR7 agonist max-min: recorded beside NPYLR7 agonist, whose call it bears; activation, %; measured here: Max-Min RFU normalised activation; some inactives read as strong as hits;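 span of the calcium signal over five minutes; 0% = vehicle and 100% = native peptide agonist; compound fluorescence can raise it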
* marks the source's active call; other numbers are inactive results; & = joins results of further samples. An excerpt; count on the stated rates, not on these rows.

smiles	NPYLR7 agonist	NPYLR7 agonist max-min
Cc1ccc(C2(O)CCN(CC(=O)N3CCOc4ccccc43)CC2)nc1	-3	-7
CCOC(=O)c1ccc(-n2c(O)c(C=NCCCN3CCOCC3)c3ccccc3c2=O)cc1	6	6
CCCCNC(=S)NN=Cc1ccc(C)s1	-7	-18
COc1ccc(C(=O)NC2CCN(c3ccccc3C(=O)N3CCN(C4CCCCCC4)CC3)CC2)cc1	21	30
N#CCC(=O)NCCN1CCOCC1	1	-1
CC1CN(C(=O)c2ccc(NC(=O)c3ccco3)cc2)CCO1 (stereo not given)	-4	-5
COc1ccc(S(=O)(=O)Nc2ccccn2)cc1OC	0	-10
CC(C)(C)CC(=O)N(Cc1cccc(C(F)(F)F)c1)CC1CC(c2ccccc2Cl)=NO1 (stereo not given)	10	26
Cc1ccc(C(c2c(N)n(CC(C)C)c(=O)[nH]c2=O)N2CCOCC2)s1 (stereo not given)	0&1	1&0
Cc1cccc(CC(=O)N2CCc3c2ccc(-c2cn(C)c4ncnc(N)c24)c3F)n1	0	-6
CCCCNc1nnc(SCc2cc(=O)n3cc(Br)ccc3n2)s1	13	12
Cc1oc(-c2ccccc2Cl)cc1C(=O)N1CCC(C(O)c2ccccn2)CC1 (stereo not given)	5	-2
Cn1cc(C(CC(=O)N2CCc3ccccc3C2)c2cccc(C(F)(F)F)c2)c2ccccc21 (stereo not given)	-2	7
Cc1cccc(Cn2c(=O)c3c(nc4n3CC(C(C)(C)C)=NN4)n(C)c2=O)c1	-11	-14
Cc1ccc(C(=O)NC(C)C23CC4CC(CC(C4)C2)C3)s1 (stereo not given)	20	13

Profiles as entered above. Values in the order: NPYLR7 agonist, NPYLR7 agonist max-min
Shown for `Cc1oc(-c2ccccc2Cl)cc1C(=O)N1CCC(C(O)c2ccccn2)CC1` (stereo not given) = 5, -2
Shown for `N#CCC(=O)NCCN1CCOCC1` = 1, -1
Shown for `Cc1cccc(Cn2c(=O)c3c(nc4n3CC(C(C)(C)C)=NN4)n(C)c2=O)c1` = -11, -14
Shown for `CC(C)(C)CC(=O)N(Cc1cccc(C(F)(F)F)c1)CC1CC(c2ccccc2Cl)=NO1` (stereo not given) = 10, 26

Next section:
smiles	NPYLR7 agonist	NPYLR7 agonist max-min
Cc1ccn2c(NC(=O)Cc3ccccc3)c(-c3ccccc3)nc2c1	4	9
O=C1CCC(C(=O)N2CC=C(c3ccccc3)CC2)CN1CCc1ccccn1 (stereo not given)	6&16	6&2
Cn1ccnc1SCc1cc(=O)c(OC(=O)c2ccc([N+](=O)[O-])cc2)co1	-6	-6
Cc1cccc2nc(COc3ccc4ccccc4c3Br)cn12	-14	-17
COCC1(C(=O)N2CCCC2c2c(C)noc2C)CCC1 (stereo not given)	13&9	9&4
CN(Cc1ccc(Cl)s1)Cc1cc2c(cc1O)CCC2	-1&-3	2&-3
Nc1ccc2c3c(cccc13)CC2	-1	5
O=C(Nc1cc(C(F)(F)F)no1)c1ccc(Cl)cc1F	13	11
CCc1nc2n(n1)C(=O)C(C(c1cccs1)N1CCC(O)CC1)S2 (stereo not given)	-3	-9
Cc1[nH]n(Cc2ccccc2)c(=O)c1C(=O)Nc1ccccn1	-1	0
O=C(Nc1cc(S(=O)(=O)N2CCOCC2)ccc1N1CCCC1)C12CC3CC(CC(C3)C1)C2	-3	-3
CCOc1cc(C(=O)NCC(=O)Nc2ccc(F)c(F)c2F)ccc1OC	-4	-4
Cc1[nH]c2ccccc2c1C(=O)C(C)Oc1ccccc1C#N (stereo not given)	1	-3
CC(C)c1noc(CCNC(=O)c2cn3c(n2)CNCC3)n1	3	-1
CCC(C)N(Cc1ccc(OC)c(OS(=O)(=O)c2ccc(F)cc2)c1)C(=O)c1cccs1 (stereo not given)	20	24
CN(Cc1n[nH]c2c1CCCC2)C(=O)C(c1ccc(F)cc1)N(C)C (stereo not given)	1	33
O=C1C[C@H]2CC[C@@H](CN1)N2C(=O)Cn1nnc2ccccc2c1=O	1	13
CCn1c(CC2CCN(c3cc(C)nc(C(C)C)n3)CC2)nn(C)c1=O	2	2
CCOC(=O)CN([C@@H]1C[C@@H]2CO[C@H](c3ccccc3)C[C@@H]2C1)S(C)(=O)=O	25	27
Cc1ccc(Cl)cc1-n1c(C)c(C)n2c3c(=O)n(CCN4CCOCC4)c(=O)n(C)c3nc12	6	0
CC1CN(c2ccc(NC(=O)NCC(c3ccco3)N(C)C)cn2)CC(C)O1 (stereo not given)	6	4
COc1ccc(Br)cc1CO	-7	-14
COc1cccc(C(=O)N2CCCC(N3CCN(c4ccccc4C)CC3)C2)c1 (stereo not given)	-2	-1
COCCCNC(=O)c1cc(NC(=O)c2cc(Cl)cc(Cl)c2)ccc1N1CCCC1	0	8
O=S(=O)(Nc1cccc2cccnc12)c1ccc(F)cc1	14	7
O=C(Nc1nc(-c2ccc3c(c2)OCCO3)cs1)C1=COCCO1	-2	-1
CN(Cc1nc2ccc(Cl)cc2[nH]1)C(=O)c1cnn2ccn(C)c12	-1	-10
CN(C)CC1(O)CCCN(C(=O)c2cnc3ccccn3c2=O)C1 (stereo not given)	-2	-7
CCOC(=O)N1CCN(CC(=O)N2N=C(c3cccc(F)c3)CC2c2ccccc2C)CC1 (stereo not given)	21	16
O=C(NCCSc1ccccc1)c1ccc2c(c1)OCO2	15	4
Cc1cc(C)c2c(n1)nn1c(N3CCN(C)CC3)cc(C)nc21	-1	17
O=c1cc(NC2CCN(C/C=C/c3ccccc3)CC2)c2ccccc2o1	0	-2
C=CCN(CC=C)C(=O)CSc1nnc(Cc2ccccc2)n1-c1ccccc1OC	3	6
Cc1cc(C(=O)NCC2CCCN(Cc3nc4ccccc4s3)C2)no1 (stereo not given)	13&-1	5&-6
Cc1cc(O)c(CN2CCC(C)CC2)c2c1C(=O)/C(=C/c1ccncc1)O2	16	12
COC(=O)C1CCCCN1C(=O)c1cc(COc2ccc(C(C)=O)cc2)on1 (stereo not given)	1	-1
CC12CCC(CC1=NN=Cc1ccc(Cl)c([N+](=O)[O-])c1)C2(C)C (stereo not given)	1	39
Cc1cnc(C(=O)OCc2cc(=O)n3c(C)cccc3n2)cn1	-3	4
CC1CCCC(c2ccccc2)N1S(=O)(=O)c1cnn(C)c1 (stereo not given)	-7	-11
Cc1ccc(Cc2nc(N3CCCN(C(=O)C4C[C@H]4c4ccccc4)CC3)c3c(C)nn(-c4ccc(F)cc4)c3n2)cc1 (stereo not given in full)	4	4
CCN(c1ccccc1)S(=O)(=O)c1c(-c2ccc(C)cc2)csc1C(=O)OC	10	9
Cc1ccc(C2(O)CCN(C(=O)c3cc4ccccc4s3)CC2)nc1	8	3
COc1ccc(OC)c(-c2cccc(-c3ccc(NC(=O)c4ccccc4C(F)(F)F)cc3)n2)c1	-3	1
Cc1ccc(Cc2nc(N3CCN(C(=O)COc4ccc(Cl)cc4)CC3)c3c(C)nn(-c4ccc(F)cc4)c3n2)cc1	-4	-4
CCOC(=O)c1cc(-c2ccc(N3CCN(C(=O)c4cc(C)oc4C(F)(F)F)CC3)cc2)n(-c2ccccc2C)n1	3	-1
COc1cc(-c2cc(C(=O)N/N=C\c3cccnc3)[nH]n2)ccc1OC(C)C	-1	-6
Cc1ccc(-c2nn(Cc3cccc(F)c3)c(=O)c3nc(C)sc23)cc1	2	0
O=C(Oc1ccc2c(C(F)(F)F)cc(=O)oc2c1)C1=CC=CN2CCS(=O)(=O)N=C12	22	20
Fc1ccccc1C1CC(c2ccc(I)cc2)=Nc2nnnn21 (stereo not given)	12	4
CCN(CC(=O)NC(C)C)C(=O)CN1CCCC(O)C1 (stereo not given)	1	0
Cc1ccc(Cn2c(CN3CC(C)OC(C)C3)nc3c2c(=O)n(C)c(=O)n3C)cc1 (stereo not given)	0	5
C1CCN(c2nc3nonc3nc2N2CCCC2)C1	2	1
CCCCCCCCCC(=O)Nc1ccc(N2CCCC2)c(C(=O)NC(C)CC)c1 (stereo not given)	-2	8
CCS(=O)(=O)NC1CCCN(C(=O)c2cc3ccc(Br)cc3[nH]2)C1 (stereo not given)	3	2
Cc1cccc(C(=O)N2CCCC(N3CCN(c4cccc(Cl)c4)CC3)C2)c1 (stereo not given)	-1	-5
Cc1nc2sccn2c(=O)c1NC(=O)c1ccccc1C(F)(F)F	5	-4
CCCCCCc1cc2cc(-c3nc4ccccc4[nH]3)c(=Nc3ccccc3C)oc2cc1O	5	14
Cc1nc2sc3c(c2c(=O)[nH]1)CCC3	-6&-1	-18&-2
CCc1nc2ccc(C(=O)NCCN3CCCC3)cn2c1N(C)C(=O)COc1ccccc1	-6	-11
CCSc1nc2c(c(=O)[nH]c(=O)n2C)n1CCCc1ccccc1	2	0

3 of the compounds above, with two lines to a compound:
Under each structure – NPYLR7 agonist | NPYLR7 agonist max-min
- CC(C)c1noc(CCNC(=O)c2cn3c(n2)CNCC3)n1
    3 | -1
- CCC(C)N(Cc1ccc(OC)c(OS(=O)(=O)c2ccc(F)cc2)c1)C(=O)c1cccs1 (stereo not given)
    20 | 24
- CN(Cc1n[nH]c2c1CCCC2)C(=O)C(c1ccc(F)cc1)N(C)C (stereo not given)
    1 | 33

Going on with the list:
smiles	NPYLR7 agonist	NPYLR7 agonist max-min
CCOC(=O)O[C@]1(C(=O)COC(=O)CC)CC[C@H]2[C@@H]3CCC4=CC(=O)C=C[C@]4(C)[C@H]3[C@@H](O)C[C@@]21C	-19	-22
COc1ccc(C(=O)NCC(=O)N=Nc2c(O)[nH]c3ccc([N+](=O)[O-])cc23)cc1OC	4	-4
O=C(CSc1nc2c(c(=O)n1CCc1ccccc1)SCC2)c1ccccc1	-15	-15
CCCc1ccc(C(=O)N2CCCC(O)(CN(C)C)C2)cc1 (stereo not given)	-1	-5
COc1cc(COC2CCCN(C(=O)c3ccc(Cl)cc3)C2)cc(OC)c1 (stereo not given)	-4	2
Cc1cc(=O)oc2cc(-n3cnnc3)ccc12	19	11
O=S(=O)(NCc1cnn2ccccc12)c1cc2ccccc2o1	2	0
c1cc(CN2CCc3[nH]cnc3C2c2ccsc2)n(-c2nccs2)c1 (stereo not given)	14	9
O=S(=O)(N1CCCCCC1)N1CCN2CCCCC2C1 (stereo not given)	2	0
Cc1nc(C)n(CCC(=O)Nc2cccnc2)n1	1	11
CCOC(=O)[C@@H]1[C@@H](OC)C(=O)N(C)C12CCN(C(=O)c1ccccc1)CC2	12	16
CCOc1ccc(CN(CC)Cc2nc3cc(S(=O)(=O)N(C)C)ccc3n2CC)cc1OC	-8	-9
COCc1cn(CC2CCN(C(=O)c3ccc4nccnc4c3)CC2)nn1	-4	-5
COc1ccccc1OCc1cc(C(=O)N(C)C2CCSCC2)n[nH]1	7	5
O=C1NC2(CCCC2)N=C1c1ccc(Cl)c(Cl)c1	-2	-3
O=c1oc2cc(O)ccc2cc1-c1nnc(-c2ccccc2)o1	35	36
CN(C)c1ccc(/C=C/CN2CCC3(CC2)C(=O)N(Cc2ccccc2)C(=O)N3C)cc1	7	-4
COC(=O)C(Cc1ccccc1)NC(=O)CNC(=O)c1ccc(SC)cc1 (stereo not given)	-8	-11
CC(C)c1noc(NC2CCCC2CNC(=O)OC(C)(C)C)n1 (stereo not given)	3	2
O=C1OC(C23CC4CC(CC(C4)C2)C3)=NC1=Cc1ccc2c(c1)OCO2	0	0
OC(c1ccc(Cl)cc1)c1ncc(-c2cccc(C(F)(F)F)c2)[nH]1 (stereo not given)	1	-2
Cc1cccc(-c2c(N)n(C)c3ccccc3c2=O)c1	0	-4
COc1ccc(C(CC(=O)N2CCCCCC2)c2ccccc2)cc1 (stereo not given)	6	4
OCCN1CCN(C2CCC(c3ccc(F)cc3)c3ccc(F)cc32)CC1 (stereo not given)	1	0
CC1CN(Cc2nc3c(c(=O)n(C)c(=O)n3C)n2CC(N)=O)CC(C)O1 (stereo not given)	8	1
C=C(C)COc1ccc(-c2nc(N)ncc2Oc2ccc(OC)cc2)c(O)c1	5	4
Fc1ccccc1Cn1ccnc1CNc1ccccc1	-2	-3
CN(C1CCCCC1)S(=O)(=O)N1CCCC(C(=O)N2CCC(C(N)=O)CC2)C1 (stereo not given)	5	1
CC(C)Oc1ccc(C(=O)Nc2c3c(nn2-c2ccccc2)CS(=O)C3)cc1 (stereo not given)	-3	-5
O=C(CC(c1ccccc1)c1ccc(Cl)cc1)NCCc1cnccn1 (stereo not given)	3	-2
Cc1ccnc(NC(=O)Cc2ccc(Br)cc2)c1	2	0
COc1ccc(C2CC(c3ccccc3)=NN2C(C)=O)cc1 (stereo not given)	-7	-12
COc1ccc(-c2nnc(NC(=O)c3cccs3)s2)c(OC)c1	-5	-9
COc1cccc(CN2CCCCC2CN2CCOCC2)c1F (stereo not given)	13	9
COc1ccc(CN2CCN(c3nc(Cc4ccccc4)nc4c3c(C)nn4-c3ccc(F)cc3)CC2)cc1	-1	4
COc1ccc(Cn2c(C(=O)N3CC4(C)CC3CC(C)(C)C4)cc3ccsc32)cc1 (stereo not given)	-3	3
COc1ccc(N2CCN(C(=O)c3nn(-c4ccc(C)cc4)c(=O)cc3OC)CC2)cc1	10	4
O=S(=O)(Nc1cc2c(cc1Br)OCCO2)c1ccccc1F	8	6
CCOCCCn1c(SCc2cc3c(cc2Cl)OCO3)nc2cc(S(=O)(=O)N3CCOCC3)ccc21	12	6
COC(=O)Cn1nc(C)c2ccccc2c1=O	4	5
Cc1ccc(CC2CCCN(CC(=O)Nc3nncs3)C2)cc1 (stereo not given)	17	10

Compound activity as filed in PubChem BioAssay.
